TRPML1 ag: agonists of human TRPML1 channel; TRPML1-expressing cells, Ca2+ dye fluorescence, FDSS; host cell line not named in the record; reference of the full effect not given here; Q9GZU1; AID 624414; 410,000 tested, 0.12% active; activation, % (test concentration not listed); in the data active = activation above about 50%; inconclusive = about 30% to 50%; inactive = below about 30%; note: 0% is about no effect; the text of the record puts the active cut at 80%
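TRPML1-DL cells, Tet-induced overnight (~16 h, 37 degrees C), loaded 45-90 min at room temperature with Ca8 no-wash calcium dye plus quencher. FDSS fluorescence: 10 s baseline, compound pin-transfer, 110 s agonist read, then EC80 54-4 (4uM final) and 110 s antagonist read.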
D2 potentiator: positive allosteric modulators of human D2 dopamine receptor; P14416; DiscoveRx D2 beta-arrestin cells, luminescence, 90 min; 100% = 57 uM dopamine signal; potentiation, % (concentration not given with the values); 360,000 tested, 0.23% active; active = potentiation of 50% or more; inconclusive = 30% to 50%; inactive = 30% or less;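 note: compound concentration not given in the record; tested on top of an EC20 dose of dopamine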
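D2 cells co-treated with compound plus 50 nM dopamine (EC20) for 90 min at 37 deg C to detect potentiation. Beta-arrestin recruitment was read as enzyme-fragment luminescence after 1 h at ambient temperature. Full response was set by 57 uM dopamine.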
TRPML1 inh: inhibitors of human TRPML1 channel. Q9GZU1. TRPML1-inducible cells, Ca2+ dye fluorescence, FDSS; hits give low values; inhibition of EC80 agonist-evoked calcium signal. activity change, negative = inhibition, % (test concentration not listed). 390,000 tested, 0.02% active. AID 624415; in the data active means activity change below about -50%; inconclusive means about -30% to -50%; inactive means above about -30%;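 note: stimulus is agonist 54-4 at its EC80 concentration; % is set by controls: 0 for no effect and ±100 for the full control effect; compound concentration not given in the record; the text of the record puts the active cut at -80%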
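Tet-induced TRPML1-DL cells loaded with Ca8 no-wash calcium dye were read kinetically on FDSS. Compound addition was followed by EC80 agonist 54-4 (4 uM final); inhibition was read over 110 s.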
TRPV1 PAM: human TRPV1 potentiation | AID 540277 | Q8NER1 | potentiation, % at 8.33 µM | 320,000 tested, 0.02% active | TRPV1-expressing cells, Fluo-8 calcium influx, capsaicin EC20 potentiation; host cell line not named in the record; control for the full effect not named in the record; active means potentiation above 80%; inconclusive means 30% to 80%; inactive means below 30%; note: 0% is about no effect
Target sequence (Q8NER1 whole entry, looked up): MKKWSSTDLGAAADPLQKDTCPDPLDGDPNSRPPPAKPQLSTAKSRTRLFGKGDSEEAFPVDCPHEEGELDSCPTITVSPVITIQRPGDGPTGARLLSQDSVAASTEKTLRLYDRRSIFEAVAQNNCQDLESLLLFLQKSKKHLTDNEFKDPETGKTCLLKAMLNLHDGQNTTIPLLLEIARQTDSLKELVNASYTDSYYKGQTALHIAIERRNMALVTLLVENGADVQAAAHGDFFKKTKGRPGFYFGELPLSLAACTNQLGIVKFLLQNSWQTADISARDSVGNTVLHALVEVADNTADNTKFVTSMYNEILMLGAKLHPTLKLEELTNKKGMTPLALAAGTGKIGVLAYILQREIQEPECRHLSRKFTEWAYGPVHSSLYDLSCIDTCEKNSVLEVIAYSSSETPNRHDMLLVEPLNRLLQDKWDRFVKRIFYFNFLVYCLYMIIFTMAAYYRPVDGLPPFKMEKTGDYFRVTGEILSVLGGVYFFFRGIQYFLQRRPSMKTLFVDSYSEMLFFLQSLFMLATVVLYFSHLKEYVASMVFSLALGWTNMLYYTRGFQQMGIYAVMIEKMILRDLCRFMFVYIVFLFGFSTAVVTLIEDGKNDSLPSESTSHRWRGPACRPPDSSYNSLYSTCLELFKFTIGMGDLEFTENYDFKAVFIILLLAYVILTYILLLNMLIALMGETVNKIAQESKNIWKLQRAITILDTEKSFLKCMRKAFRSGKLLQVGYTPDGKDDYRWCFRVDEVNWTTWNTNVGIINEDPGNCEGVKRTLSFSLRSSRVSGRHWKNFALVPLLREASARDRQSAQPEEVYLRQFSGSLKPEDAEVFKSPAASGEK
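TRPV1-expressing cells were cultured overnight at 35.5C and loaded with Fluo-8 calcium dye for 40 to 90 min at room temperature. After a 10 s baseline, compound was added and calcium influx was read kinetically for 3 min (ex 480/em 520 nm).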
Six1-Eya2 inh: blocks human Six1 binding to Eya2 | Q15475+O00167 | AlphaScreen GST-Six1/His-Eya2 binding, biochemical; hits give low values; control for the full effect not named in the record | activity change, % (no concentration beside the values) | 360,000 tested, 0.56% active | AID 651725; in the data active = activity change below about -65%; inconclusive = about -30% to -65%; inactive = above about -30%; note: % is set by controls: 0 for no effect and ±100 for the full control effect; compound concentration not given in the record
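GST-Six1 + His-Eya2 (5X stock: 250/500 nM); Tris pH 8.0, 300 mM NaCl, 0.05% BSA, 0.02% Tween 20; GSH donor/Ni acceptor beads; 1 h 37 °C dark; AlphaScreen readout.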
CtBP-E1A inh: inhibitors of CtBP/E1A interaction; AlphaScreen GST-E1A/His-CtBP binding, 1536-well; hits give low values; control for the full effect not named in the record; activity change, % (concentration not given with the values); 340,000 tested, 0.49% active; AID 651724; in the data active means activity change below about -65%; inconclusive means about -30% to -65%; inactive means above about -30%; note: % is set by controls: 0 for no effect and ±100 for the full control effect
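GST-E1A and His-tagged CtBP (125 nM each as 5X stock) were preincubated with pin-transferred compound for 2 h at 37 °C in the dark, then glutathione donor and nickel acceptor beads were added for 1 h before AlphaScreen reading.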
* = called active by the depositor; ? = inconclusive; nt = no result given.

SMILES	TRPML1 ag	D2 potentiator	TRPML1 inh	TRPV1 PAM	Six1-Eya2 inh	CtBP-E1A inh
Cc1ccc2[nH]c(O)c(N=NC(N)=S)c2c1	-0.6	-16	-6	-24	?	-30
O=C(NC1CCCCC1)C1CCCN1S(=O)(=O)c1ccc(F)cc1 (stereo not drawn)	-0.4	9	-13	13	13	9
CN1CCN(C(=O)CN2C(=O)NC(C)(c3ccc4ccccc4c3)C2=O)CC1 (stereo not drawn)	0.1	-10	49	-3	5	-4
O=C(NCCc1cccs1)C1CC(c2c(Cl)cccc2Cl)=NO1 (stereo not drawn)	-0.5	-5	3	17	0	1
Cn1nc(C(F)(F)F)cc1C(=O)Nc1ccc(Cl)cc1	-0.2	-4	11	-5	0	11
CC1(C(=O)NS(=O)(=O)c2ccc(C#N)cc2)CCN1C(=O)Cc1ccsc1 (stereo not drawn)	-0.2	-6	nt	nt	14	2
Cc1cccc(OCC(=O)O/N=C(\N)Cc2cccs2)c1	1.8	-19	7	12	27	41
COc1ccccc1NC(=O)CSCc1cc(=O)n2ccsc2n1	-0.1	-3	-6	-11	1	0
COc1ccc(CC(=O)NCC(c2ccc(OC)cc2)N(C)C)cc1 (stereo not drawn)	0.8	1	27	-9	0	6
O=C1CC(C(=O)NCc2ccccc2)C2(CCCC2)O1 (stereo not drawn)	0.7	-6	14	3	3	8
COCCNC(=O)/C(C#N)=C/c1ccc(-c2ccc(S(=O)(=O)N3CCOCC3)cc2)o1	-0.4	-1	-23	-21	-2	-1
NNc1nc2ccccc2nc1C(F)(F)F	0.5	1	3	1	0	nt
Cc1ccc(CSc2nnc(NC(=O)C3=COCCO3)s2)cc1	3.9	1	1	5	0	-2
COc1ccc(C(C)=O)cc1CSc1ccccn1	-0.1	-13	5	-3	6	-16
O=C(NC(Cc1ccccc1)C(=O)O)/C(=C\c1ccc(Cl)cc1)NC(=O)c1ccccc1 (stereo not drawn)	-0.3	-3	-7	-4	4	0
CC(C)(C)C(=O)NC1CCN(CC(=O)Nc2ccc3c(c2)OCO3)CC1	-0.4	-8	-12	10	-2	-21
CCO[C@@H]1OC(C(=O)O)=C[C@H](c2ccc3c(c2)OCO3)[C@H]1CCCO	-0.5	-2	-5	?	-6	-2
CCNC(=O)N1CCCC(C(=O)c2ccc(-c3ccccc3)cc2)C1 (stereo not drawn)	1.6	-2	7	-9	2	9
CCc1nc2ccc(C(=O)Nc3ccc(C(=O)N(C)C)cc3)cn2c1N(C)CCCc1ccccc1	-0.4	-5	nt	nt	-8	1
Cc1cc(NC(=O)c2ccc(S(=O)(=O)N3CCCC3)cc2)nc2c1c(=O)oc1ccccc12	2.0	3	32	-1	-21	-15

Individual results from the list:
COCCNC(=O)/C(C#N)=C/c1ccc(-c2ccc(S(=O)(=O)N3CCOCC3)cc2)o1 | Six1-Eya2 inh = -2
COc1ccc(C(C)=O)cc1CSc1ccccn1 | TRPML1 inh = 5

Additional structures follow:
SMILES	TRPML1 ag	D2 potentiator	TRPML1 inh	TRPV1 PAM	Six1-Eya2 inh	CtBP-E1A inh
CCNC(=O)C1(C)CCCN(CCOc2ccc(Cl)cc2)C1 (stereo not drawn)	-0.4	-10	nt	nt	7	8
Nc1nc(CCl)nc(Nc2ccc3ccccc3c2)n1	0.4	0	-16	-21	-15	4
COc1cccc(C2/C(=C(\O)c3ccc4c(c3)OCO4)C(=O)C(=O)N2CCN(C)C)c1OC (stereo not drawn)	-0.1	-10	13	10	6	14
CCc1ccc(-c2nc(CSCC(=O)NCCCN3CCCC3=O)c(C)o2)cc1	-0.2	-4	2	0	2	3
C=CCn1c(C)c(C(C)=O)c(N2CCCC2)nc1=S	0.2	-5	8	-23	3	0
O=C(NC1CCCC1)C(c1ccccc1)N(Cc1ccc(F)cc1)C(=O)c1csnn1 (stereo not drawn)	3.0	-9	13	7	6	0
FC(F)(F)C1=CC(c2ccccc2)=NCCN1	-0.1	-24	6	4	-3	1
Cc1ccc(S(=O)(=O)N2CCC(C(=O)Nc3nnc(COc4ccccc4)s3)CC2)cc1	-0.4	1	-5	3	-23	14
CCN(CC)C1CCN(C(=O)CCn2nnnc2CN2CCOCC2)C1 (stereo not drawn)	0.2	-1	5	-10	-1	-7
O=S(=O)(NCc1ccco1)c1ccc(S(=O)(=O)N2CCCCC2)cc1	-0.4	-6	0	1	-3	-7

A second format for 4 compounds above:
COc1cccc(C2/C(=C(\O)c3ccc4c(c3)OCO4)C(=O)C(=O)N2CCN(C)C)c1OC (stereo not drawn)
  TRPML1 ag = -0.1	D2 potentiator = -10	TRPML1 inh = 13	TRPV1 PAM = 10	Six1-Eya2 inh = 6	CtBP-E1A inh = 14

CCc1ccc(-c2nc(CSCC(=O)NCCCN3CCCC3=O)c(C)o2)cc1
  TRPML1 ag = -0.2	D2 potentiator = -4	TRPML1 inh = 2	TRPV1 PAM = 0	Six1-Eya2 inh = 2	CtBP-E1A inh = 3

C=CCn1c(C)c(C(C)=O)c(N2CCCC2)nc1=S
  TRPML1 ag = 0.2	D2 potentiator = -5	TRPML1 inh = 8	TRPV1 PAM = -23	Six1-Eya2 inh = 3	CtBP-E1A inh = 0

O=C(NC1CCCC1)C(c1ccccc1)N(Cc1ccc(F)cc1)C(=O)c1csnn1 (stereo not drawn)
  TRPML1 ag = 3.0	D2 potentiator = -9	TRPML1 inh = 13	TRPV1 PAM = 7	Six1-Eya2 inh = 6	CtBP-E1A inh = 0

(more compounds)
SMILES	TRPML1 ag	D2 potentiator	TRPML1 inh	TRPV1 PAM	Six1-Eya2 inh	CtBP-E1A inh
CC(C)CN(CCNC(=O)CN1C(=O)COc2ccc(S(=O)(=O)N3CCOCC3)cc21)CC(C)C	-0.7	-7	1	-5	4	4
Cc1cccc2sc(NC(=O)C3CCCO3)nc12 (stereo not drawn)	0.1	-4	-18	-1	1	6
COc1ccccc1C(=O)NC1CCCc2ccccc21 (stereo not drawn)	1.1	-5	-8	-4	-3	-20
O=C(c1ccco1)N1CCN(C2CN(C3CCCCC3)S(=O)(=O)C2)CC1 (stereo not drawn)	-0.7	-3	nt	nt	-1	2
CCOC(=O)c1ccc(NC(=O)NCc2cccnc2)cc1	0.3	-35	-9	0	-23	0
CCN(CC)S(=O)(=O)c1ccc(/C=C/C(=O)Nc2ccccc2N2CCOCC2)cc1	0.6	-5	-11	-37	-4	-4
CCN(C[C@H]1N[C@@](Cc2ccccc2)(C(=O)OC)[C@H]2C(=O)N(C)C(=O)[C@@H]12)C(=O)c1ccc(C(C)(C)C)cc1	3.6	-7	-12	nt	4	10
COc1ccc(CC(=O)OCC(=O)Nc2ccc(F)cc2)cc1	0.3	-10	-5	-18	1	8
CCNc1nc2c(c(=O)n(Cc3ccccc3)c(=O)n2C)n1Cc1ccccc1	-0.8	?	2	11	-15	-5
Cc1cccc(N2N=C(C(=O)N3CC(=O)Nc4ccccc43)CCC2=O)c1	0.8	-12	-16	17	-1	5
O=C(c1ccco1)N(CCC(c1ccccc1)c1ccco1)Cc1ccc(F)cc1 (stereo not drawn)	-0.1	-7	3	-12	-7	-2
COc1ccccc1Cn1c(CCCO)nc2ccccc21	0.7	-1	19	4	12	5
Cn1c(N)c(C(=O)COC(=O)COc2ccc(Cl)cc2Cl)c(=O)n(C)c1=O	-0.5	6	11	nt	-18	-7
Cc1ccc(S(=O)(=O)N(C)C)cc1NC(=O)CSc1nnnn1-c1ccc(O)cc1	-0.4	-6	-11	nt	9	-5
O=C(NCc1ccc(F)cc1F)[C@@H]1CCCN1C(=O)[C@@H]1CCCN1C(=O)c1ccc(Cl)cc1	-1.2	nt	nt	nt	2	-1
CCCCCCNS(=O)(=O)c1nc2nc(C)cc(C)n2n1	0.4	-6	6	0	1	5
O=C(COc1ccc(F)c(Cl)c1)NC(=O)NC1CCCC1	0.2	0	-6	nt	4	2
COc1cc2c(cc1OC)CN(C(=O)c1ccc(OC)c([N+](=O)[O-])c1)CC2	-0.2	0	-9	-2	-16	-1
Oc1ccc(N=Nc2ccccc2)o1	1.2	-4	-16	5	2	-4
COc1ccc(NC(=O)c2ccc([N+](=O)[O-])cc2[N+](=O)[O-])c(OC)c1	2.0	10	12	9	0	nt
COc1ccc(N2CCN(C(CNC(=O)c3ccc4c(c3)OCO4)c3cccnc3)CC2)cc1 (stereo not drawn)	-0.7	-16	-3	1	-8	-1
Cc1c(NS(=O)(=O)c2ccccc2F)c(=O)n(-c2ccccc2)n1C	0.0	1	-1	6	7	0
CC(=O)N1CC(C)Sc2ccc(S(=O)(=O)NCCc3ccc(C)cc3)cc21 (stereo not drawn)	-1.0	-11	-12	-9	-1	-2
OC(CNC1CCCC1)COc1ccc(-c2ccccc2)cc1 (stereo not drawn)	0.1	-8	-2	-7	-2	-13
CCCOc1ccc(Br)cc1/C=N/O	3.2	0	-12	-3	13	-3
O=C(Nc1ccc(S(=O)(=O)N2CCCC2)cc1)c1cc(=O)c2ccccc2o1	-0.2	-8	14	-22	1	-1
O=C(NC1CCCCCC1)C1CCN(S(=O)(=O)c2c(Cl)cccc2Cl)CC1	0.0	1	-3	-13	7	-3
O=c1cc(COc2ncnc3c(Cl)cc(Cl)cc23)nc2sccn12	0.3	-8	-6	26	6	-8
Cc1cccc(OC(C)C(=O)Nc2nc(-c3ccncc3)cs2)c1 (stereo not drawn)	0.8	0	28	-2	-5	3
Cc1ccc(NC(=O)c2ccc(OC(=O)COc3ccc(Cl)cc3C)cc2)cc1	-0.5	0	-3	-19	-1	-8
Cc1ccccc1CNC(=O)CN(c1cccc([N+](=O)[O-])c1)S(C)(=O)=O	2.0	-29	2	-5	0	nt
COc1cccc(CNS(=O)(=O)c2ccc3c(c2)N(C(C)=O)CCS3)c1	-0.3	-3	8	-3	10	nt
CCCCCNC(=O)C(C#N)c1nc2ccccc2nc1N1CCCC1 (stereo not drawn)	0.0	-29	-7	-6	0	0
O=C(COc1ccccc1Cl)Nc1nc(-c2ccncc2)cs1	-0.1	-10	-12	nt	-15	-6
CCCN(CC)c1ncnc2[nH]ncc12	-0.2	-8	-22	nt	-9	-5
S=C(NCCSCc1ccc(Cl)c(Cl)c1)Nc1ccccc1	-0.1	25	1	nt	-4	-1
Cn1c(=O)c2c(nc(CN3CCN(C(=O)c4ccco4)CC3)n2Cc2ccccc2F)n(C)c1=O	-0.6	-2	6	20	-6	-27
COc1cc(/C=C/C(=O)NNC(=O)c2cccc(S(=O)(=O)N(C)C)c2)cc(OC)c1OC	1.0	-29	-5	13	-2	9
CCc1nn(CC(=O)NCCN2CCN(C)CC2)c(=O)c2cc3occc3n12	-0.9	-11	-6	9	3	4
COc1ccc(Cl)cc1NC(=O)/C=C/C(=O)O	0.4	-4	-17	?	-1	9
CC(=O)c1sc(NC(=O)CN2C(=O)NC3(CCCC3)C2=O)nc1-c1ccccc1	0.0	-23	26	-4	3	-13
Cc1ccc(Cn2c(CN(C)Cc3ccccc3)nc3c2c(=O)n(C)c(=O)n3C)cc1	9.2	-3	10	4	-9	1
COC(=O)CS(=O)(=O)c1ccc(C)cc1	-0.5	-3	1	11	10	1
O=C(Cc1cccs1)NCc1cccnc1	0.1	-4	27	2	-1	1
Cc1ccc(CNS(=O)(=O)c2c(C)[nH]c(C)c2C(=O)N2CCCC2)cc1	0.5	-2	44	3	-1	1
COc1ccc(C(c2c(O)nc(SC)n(C)c2=O)c2c(O)nc(SC)n(C)c2=O)cc1O	-0.2	-10	17	17	2	-1
CN(Cc1ccccc1F)c1ncnc2sccc12	0.2	-3	21	-12	7	8

Assay outcomes (PubChem)
